ClpP mod: qHTS Assay for Activators of ClpP. purified B. subtilis ClpP, FRET peptide cleavage, 20 min. Potency, µM (highest dose often 57.5 µM), for inactives: at the highest dose activity change, negative = active. 1.9% of 340,000 active; active = well fitted falling curve with a large enough effect; inconclusive = small, poorly fitted or top-dose-only effect; inactive = no such curve, though single readings can be large or run the other way; note: potency is the fitted concentration of half-maximal effect; the source files actives as falling curves though it sought activators and does not explain the sign; nearly all actives have a fitted effect of over 65% in size; many hits overshoot -100%
Target sequence (P80244 whole entry, looked up): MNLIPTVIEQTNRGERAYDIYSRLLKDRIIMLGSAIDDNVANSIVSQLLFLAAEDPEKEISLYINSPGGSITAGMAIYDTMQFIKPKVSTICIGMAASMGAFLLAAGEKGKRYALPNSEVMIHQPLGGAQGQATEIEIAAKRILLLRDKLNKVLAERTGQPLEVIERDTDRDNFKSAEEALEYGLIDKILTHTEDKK
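Purified B. subtilis ClpP, 10 microg/mL final in Tris/HCl pH8 with KCl, BSA, glycerol and Tween-20, cleaved an Abz/nitrotyrosine-quenched decapeptide. Fluorescence (ex 320, em 430) was read at 0 and 20 min at room temperature. Delta was normalized to 5.8 microM ADEP and DMSO/no-enzyme controls.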
Menin MLL FP FL: menin-MLL binding inhibition, fluorescein peptide; FP activity change, % at 61.4 µM; AID 1766; Fluorescence polarization, fluorescein-MLL peptide displacement from menin; 290,000 tested, under 10 active; inconclusive = falling polarisation curve, or a change in total fluorescence; inactive = total fluorescence flat and polarisation flat or rising; no compound was filed as active; the % refers to the polarisation; negative = inhibition;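 note: % of control where 0% means no effect; inhibitors lower the polarisation; unlabelled MLL peptide was the positive control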
D2 ag: human D2 receptor agonism in beta-arrestin assay; P14416; DiscoveRx PathHunter D2 beta-arrestin, luminescence, 90 min; 100% = 57 uM dopamine signal; activation, % (concentration not given with the values); 0.084% of 360,000 active; AID 624465; in the data active = activation above about 40%; inconclusive = about 15% to 40%; inactive = below about 15%; note: compound concentration not given in the record; the text of the record calls up to 30% inactive
Target sequence (P14416 whole entry, looked up): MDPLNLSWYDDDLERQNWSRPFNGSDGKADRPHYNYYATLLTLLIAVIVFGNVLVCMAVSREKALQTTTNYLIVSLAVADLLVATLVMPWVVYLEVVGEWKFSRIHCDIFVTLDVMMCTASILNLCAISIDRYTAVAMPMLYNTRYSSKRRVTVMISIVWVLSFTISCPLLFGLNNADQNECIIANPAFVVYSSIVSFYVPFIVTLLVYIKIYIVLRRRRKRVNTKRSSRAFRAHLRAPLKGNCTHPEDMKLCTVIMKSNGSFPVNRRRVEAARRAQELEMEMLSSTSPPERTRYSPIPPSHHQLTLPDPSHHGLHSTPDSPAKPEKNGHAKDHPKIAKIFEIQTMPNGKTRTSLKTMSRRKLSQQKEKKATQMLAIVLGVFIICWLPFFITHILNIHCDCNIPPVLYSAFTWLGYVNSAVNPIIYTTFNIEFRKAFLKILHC
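DiscoveRx PathHunter D2 beta-arrestin cells (2,100/well) attached overnight, then compound-stimulated 90 min at 37 C in HBSS/10 mM HEPES/0.1% Tween-20 buffer; beta-galactosidase complementation read by luminescence after 1 h at ambient temperature. Dopamine 57 uM final (EC100) as control.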
gsp ag: agonists of gsp mutant (McCune-Albright syndrome); gsp mutant cells, cAMP HTRF, 30 min; control for the full effect not named in the record; Potency, µM (highest dose often 76.9 µM), for inactives: at the highest dose activation (cAMP increase), actives largely listed as activators; 0.13% of 340,000 active; AID 624287; active = well fitted activation curve with a large enough effect; inconclusive = small, poorly fitted or top-dose-only effect, or another doubt; inactive = no such curve, though single readings can be large or run the other way; cell line not stated here;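 note: phosphodiesterase inhibitor Ro 20-1724 added with compounds to block cAMP breakdown; potency is the fitted concentration of half-maximal effect; nearly all actives have a fitted effect of over 60% in size; about a fifth of the inactives were tested at one dose only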
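Cells stably selected in G418 were plated at 2000/well, grown 16-24 hr, then given compounds in DMSO with the PDE inhibitor […] (300 uM solution added) for 30 min at 37C; cAMP was read by HTRF.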
Sfp PPTase inh: inhibitors of Bacillus subtilis Sfp phosphopantetheinyl transferase; Q9F4F7; Biochemical Sfp PPTase activity, qHTS; Potency, µM, for inactives: max response, negative = inhibition, hits mostly inhibitors; 3.5% of 310,000 active; active = well fitted inhibition curve with a large enough effect; inconclusive = small, poorly fitted or top-dose-only effect, or another doubt; inactive = no such curve, though single readings can be large or run the other way;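 note: the enzyme is Sfp with the accession as filed and its product quenches rhodamine fluorescence; potency is the fitted concentration of half-maximal effect; 0% = enzyme reaction without inhibitor and -100% = no enzyme wells; top concentration of the series not given in the record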
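Step 1, compound plus 15 nM Sfp-PPTase, 15 min, room temperature. Step 2, add rhodamine-CoA (5 uM) and BHQ-2-YbbR (12.5 uM). Step 3, read 525/598 nm fluorescence at 0 and 30 min.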
PINK1 expr mod: changes PINK1 expression; PINK1 immunofluorescence, high-content cytometry, 24 h; Potency, µM (top dose mostly 76.6 µM), without a hit: at the highest dose activation (PINK1 increase), actives largely listed as activators; 0.2% of 410,000 active; active = well fitted activation curve with a large enough effect; inconclusive = small, poorly fitted or top-dose-only effect; inactive = flat fitted curve, though single readings scatter; cell line not stated here;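 note: potency is the fitted concentration of half-maximal effect; % of control where 0% means no effect; nearly all actives have a fitted effect of over 65% in size; a mitochondrial uncoupler was the plate control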
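A stable cell line was treated with compounds at 5 concentrations for 24 hours, with CCCP as control. PINK1 levels and mitochondrial localization were measured by immunofluorescence with mitochondrial, cell and nuclear markers after fixation, read by laser-scanning cytometry.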
gsp antag: gsp mutant antagonism. gsp-mutant cells, cAMP HTRF, 30 min; control for the full effect not named in the record. Potency, µM (top dose mostly 76.9 µM), inactives show at the highest dose activity change, negative = inhibition, most hits filed as inhibitors. 0.4% of 340,000 active; active = falling curve of any shape with a large fitted effect; inconclusive = falling curve, mostly with a smaller effect; inactive = flat or rising curve; cell line not stated here;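 note: intracellular cAMP measured with PDE inhibitor Ro 20-1724 present during compound exposure; potency is the fitted concentration of half-maximal effect; % is set by controls: 0 for no effect and ±100 for the full control effect; nearly all actives have a fitted effect of over 65% in size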
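G418-selected cells were plated in DMEM/10% FBS for 16-24 h at 37C, then treated with compounds plus the PDE inhibitor […] (300 uM solution added) for 30 min at 37C. Intracellular cAMP was measured by HTRF after 30 min lysis at room temperature.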
Starred values were filed as active, the others as inactive; ? = inconclusive; · = not tested or not shown; [ ] = dose if it differs, or a comment. Outcome played no part in choosing rows; about 5.1% have a hit in one of these screens.

SMILES	ClpP mod	Menin MLL FP FL	D2 ag	gsp ag	Sfp PPTase inh	PINK1 expr mod	gsp antag
COc1ccc(-n2nnnc2/C(=C/N(C)C)C(=O)c2ccccc2)cc1	-11%	11	-4.1	7%[15.4 µM]	17%	3.7%	-1%
CCOc1ccc(Br)cc1CC(=O)O	-0.8%	·	-1.0	-19%	·	0.3%	-6%
COc1ccc(CC(=O)Nc2cc(C)on2)cc1OC	-1.1%	4.0	-2.3	-2%	8%	0.2%	9%
O=C(COC(=O)c1cccc(OC(F)F)c1)Nc1ncccn1	-3.9%	·	-1.3	-4%	·	-3.7%	-2%
CCNc1nc(N)nc(-c2cc(Cl)ccc2O)n1	-0.1%	2.1	4.2	4%[15.4 µM]	7%	-3.9%	-4%
O=C(CCCCCN1C(=O)c2ccccc2C1=O)Nc1cccc(O)c1	-1.9%	-4.3	-0.1	6%[15.4 µM]	12%	-0.3%	-7%
COc1cc(/C=C/C(=O)c2ccc(Cl)s2)cc(OC)c1O	-0.8%	11	-7.1	6%	?	14%[38.3 µM]	2%
CN1CCCC1=Nc1c2c(nc3ccccc13)N(C)CC2	·	8.2	-0.8	1%[15.4 µM]	-6%	21%	6%
Cc1cc(OCC(=O)Nc2ccncc2)ccc1[N+](=O)[O-]	·	8.4	-0.6	2%[15.4 µM]	-7%	1.7%	1%
O=C1Nc2ccccc2N=C(c2ccc3c(c2)OCO3)C1N(C(=O)c1ccnc2ccccc12)c1ccccc1 (centres undefined)	-1.9%	·	-7.3	·	·	0.8%	·
CCn1c(SCC(=O)NC2CCCCC2)nnc1-c1ccccn1	0.5%	·	-2.8	?	11%	1.7%	0%
CCc1c(C)c(C#N)c2nc3ccccc3n2c1NCCN(C)C	-11%	15	-2.7	24%	17%	-3.3%[38.3 µM]	-2%
Nc1cccnc1Oc1ccccc1F	-1.8%	-0.1	-1.0	6%[15.4 µM]	-9%	1.5%	6%
CCCCC1CCC(C(=O)Nc2ccccc2N2CCOCC2)CC1 (centres undefined)	1.2%	·	-1.1	-8%	·	7.6%	-8%
O=C(COc1ccc(NC(=O)c2ccccc2)cc1)c1ccccc1	-2.1%	-1.7	2.6	14%	8%	-1.3%	-9%
CCN1CCn2c1nc(N1CCCCC1)nc2=O	0.9%	1.0	-2.5	14%	10%	-0.8%[38.3 µM]	-5%
O=C(COc1ccc2cc(Br)ccc2c1)N1CCOCC1	0.3%	·	-0.1	0%	·	5.6%	?
CCN1CCN(C(=O)c2ccc(S(=O)(=O)Nc3ccccc3)cc2)CC1	0.2%	·	-2.7	-4%	·	1.3%	20%
Cc1ccc(NC(=O)CN2CCN(C(=O)C3CCCO3)CC2)c(C)c1 (centres undefined)	2.0%	·	3.6	12%[15.4 µM]	13%	0.0%	7%
COc1ccc(NC2CCCN(C(=O)CSc3ccccc3)C2)cc1OC (centres undefined)	-1.4%	·	3.3	-14%	-2%	2.5%	-10%
CCCN(CCC)S(=O)(=O)c1cccc(-c2csc(C)n2)c1	·	-0.3	-0.5	-4%[15.4 µM]	-1%	2.0%	-18%
CCOC(=O)c1nnn(CC(=O)Nc2cccc(F)c2)c1C(=O)OCC	0.5%	0.5	-1.3	-6%	-8%	-0.4%	4%
N#C/C(=C(/O)COC(=O)CSc1ccc(Cl)cc1)c1nc2ccccc2[nH]1	-13%	16	0.0	-1%[15.4 µM]	9%	5.9%	-5%
CC1=Nc2cc(C(=O)O)ccc2Sc2c(C)ccc(C)c21	?	4.5	-6.5	14%[15.4 µM]	2%	0.5%	-12%
CC1(C(=O)NS(=O)(=O)c2ccccc2Cl)CCN1C(=O)Cc1cc(F)ccc1F (centres undefined)	-0.1%	·	-4.9	·	·	1.3%	·
COc1ccc(C(=O)N2CCC3(CC2)CN(c2ncccn2)C3)cc1	·	5.5	·	·	-9%	-1.0%	·
O=C1NC(=O)N(Cc2ccccc2)CC1Br (centres undefined)	-0.2%	·	-1.9	-3%[15.4 µM]	·	-0.5%	12%
CNC(=S)N/N=C/c1c2ccccc2c(Cl)c2ccccc12	·	?	-3.6	-7%[15.4 µM]	-2%	?	7%
O=C(CCSc1ccccc1)Nc1nnc(-c2cccs2)o1	-14%	2.0	-5.9	42%	25%	0.1%	-4%
N#CCSc1nc2c(sc(=S)n2Cc2ccco2)c(=O)n1-c1ccc(F)cc1	1.5%	7.6	0.5	7%	-17%	-0.4%[38.3 µM]	-11%
COCc1cc(C)nc(SCc2ccc(Cl)cc2)c1C#N	·	-22	-3.6	5%	-15%	7.4%	-4%
COc1ccc2[nH]c(C(=O)NCc3ccccc3)c(C)c2c1	·	4.6	-1.8	6%	9%	7.7%	-5%
N/C(=N\OC(=O)CCC1CCCCC1)c1ccc([N+](=O)[O-])cc1	-11%	-0.7	-1.8	-2%	-9%	-0.5%	3%
C=CCNC(=O)c1ccc(-n2cccc2)cc1	·	-13	3.3	29%	14%	-1.3%	-1%
CCCCCC(=O)Nc1nc2ccccc2[nH]1	0.5%	7.3	-3.5	20%	9%	?	0%
O=C(COc1ccc(Cl)cc1Cl)NCCCCc1ccccc1	-0.6%	24	-2.7	10%	?	-3.6%[38.3 µM]	-5%
OC1(c2cn(Cc3ccccc3)nn2)CCCCC1	-3.3%	4.3	2.3	-18%	6%	-2.9%	6%
CCN(CC)C(=O)c1[nH]cnc1C(=O)Nc1ccccc1F	1.1%	·	1.7	5%	·	0.7%	·
CCNC(=O)C1(C)CCN(Cc2csc(-c3ccccc3)n2)C1 (centres undefined)	-0.7%	·	-4.1	·	·	0.7%	·
Cc1cc(OCC(=O)OCC(=O)N2CCc3ccccc32)ccc1Cl	0.4%	·	-4.6	-56%[inhibitor]	·	-1.2%	2%
CC1=C(C(=O)OCc2ccccc2)C(c2ccccc2OS(=O)(=O)c2ccccc2[N+](=O)[O-])NC(=O)N1CCCC(=O)O (centres undefined)	-2.8%	·	-0.1	·	·	0.6%	?
O=C(O)CN=C1NC2(CCCC2)Cc2ccccc21	-1.0%	-0.9	1.0	-2%	14%	-1.3%	7%
Cc1ccc(-n2c(-c3ccc(Cl)cc3)n[nH]c2=S)cc1	?	0.6	-3.0	?	6%	0.6%	-5%
COc1cccc(NS(=O)(=O)c2ccc3c(c2)C2C=CCC2C(c2ccc(C(=O)O)cc2)N3)c1 (centres undefined)	0.6%	?	-0.3	?	32µM*	6.9%	3%
C(/C=C/c1ccco1)=N/N1CCN(c2ccccc2)CC1	1.4%	0.5	0.3	-48%[inhibitor]	0%	16%	-4%
O=C(OCCN(C1=NS(=O)(=O)c2ccccc21)c1ccccc1Cl)c1ccc(Cl)cc1	-18%	3.3	-1.9	-37%[inhibitor]	20%	1.7%[38.3 µM]	-20%
O=C(Cc1cccs1)Nc1ccc(Cl)cc1	0.7%	-0.8	-1.4	-4%	12%	4.8%	-7%
Cc1ccc(/C=N\NC(=O)C2CN(S(=O)(=O)c3ccccc3)CCN2S(=O)(=O)c2ccccc2)cc1 (centres undefined)	-0.9%	5.0	-4.6	-1%[15.4 µM]	14%	0.7%	-2%

An excerpt from the list above:
SMILES	ClpP mod	Menin MLL FP FL	D2 ag	gsp ag	Sfp PPTase inh	PINK1 expr mod	gsp antag
O=C(OCCN(C1=NS(=O)(=O)c2ccccc21)c1ccccc1Cl)c1ccc(Cl)cc1	-18%	3.3	-1.9	-37%[inhibitor]	20%	1.7%[38.3 µM]	-20%
O=C(Cc1cccs1)Nc1ccc(Cl)cc1	0.7%	-0.8	-1.4	-4%	12%	4.8%	-7%

Other records:
SMILES	ClpP mod	Menin MLL FP FL	D2 ag	gsp ag	Sfp PPTase inh	PINK1 expr mod	gsp antag
CC(C)CN(Cc1cc2ccccc2[nH]c1=O)C(=O)c1cccnc1	?	0.7	-1.6	25%	-3%	0.0%[38.3 µM]	1%
O=S(=O)(c1ccccc1F)N1CCN(CCc2ccccc2)CC1	1.7%	-6.9	-2.0	-5%[15.4 µM]	1%	-1.5%	4%
C=CCSc1nc2sc(C)c(C)c2c(=O)[nH]1	-7.4%	-8.5	-2.7	1%	-2%	3.1%	-13%
NC(=O)c1ccc(NC(=O)CS(=O)(=O)c2cn(CC(=O)N3CCCC3)c3ccccc23)cc1	0.8%	-2.6	-2.4	-11%	-23%	3.3%	-18%
CCn1c(N)c(C(=O)NCCOC)sc1=S	0.1%	2.9	-4.1	-76%[inhibitor]	56µM*	-1.1%	-18%
N#CCc1ccc(NC(=O)c2ccc(S(=O)(=O)N3CCCC3)cc2)cc1	·	-3.7	2.6	9%	4%	4.1%	-7%
CCn1c(=O)cc(SCC(=O)Nc2cccc(SC)c2)c2ccccc21	?	5.7	-3.2	?	13%	-0.4%	1%
CCOC(=O)c1sc(NC(=O)C2CC(=O)N(c3ccccc3C)C2)nc1C (centres undefined)	·	4.3	6.1	?	3%	2.7%	-1%
Cc1ccc(-c2cc(C(=O)Nc3cnn(C(C)C)c3)no2)cc1	?	1.3	-0.9	26%	2%	3.8%	-10%
CCOC(=O)C1CCN(C(=O)c2cccc(NS(=O)(=O)c3ccc(F)c(F)c3)c2)CC1	·	2.1	3.0	11%[15.4 µM]	?	0.6%	-19%
CSc1nsc(SC)c1C(=O)OCC(F)(F)F	0.2%	2.4	-5.0	-9%	17%	15%	-10%
CC(=O)Nc1ccc(S(=O)(=O)Oc2ccc(C(=S)N3CCCCC3)cc2)cc1	4µM*	3.3	0.8	5%	-28%	0.7%	-25%
N=c1oc2cc(O)ccc2cc1C(=O)Nc1ccc(Br)cc1	-2.0%	?	5.6	-13%[15.4 µM]	18%	?	-15%
COc1ccc(-c2nc3cc(C)c(Br)c(C)n3c2Cc2cccc(F)c2)cc1OC	-2.0%	·	-4.0	·	·	11%	·
COCCn1c(-c2ccc(C#N)cc2)nc2c1c(=O)[nH]c(=O)n2Cc1ccccc1	·	-1.9	1.4	12%	7%	0.3%	-14%
COc1ccc(C(=O)NCCc2nnc3ccc(SCC(=O)N4CCOCC4)nn23)cc1	-5.9%	-2.4	-0.4	?	8%	2.0%	25%

Bioassay records deposited in PubChem BioAssay by National Center for Advancing Translational Sciences (NCATS).
